# RanGTP-Impb inh – inhibitors of RanGTP-importin-beta interaction, primary screen, biochemical, FRET, CFP-Ran, YFP-importin-beta, homogeneous; cell-free CFP-Ran/YFP-importin-beta FRET ratio; inhibition, % (test concentration not listed); Ran GTPase (GTP-bound) - importin-beta complex; 300,000 tested, 1.1% active;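 active = most replicates above 15%; inconclusive = exactly half above 15%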;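 note: 0% = DMSO wells and 100% = Ran loaded with GDP instead of GTP; wells of about 40 µL received 100 nL stock; the first replicate is given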
# Calb FLC – C. albicans growth inhibition with fluconazole, primary screen, CaCi-2 strain, Alamar Blue fluorescence. C. albicans CaCi-2 (fluconazole-resistant clinical isolate) + fluconazole, 48 h. growth inhibition, % (concentration not given with the values). 300,000 tested, 0.57% active. AID 1979, 2009;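 active = most replicates above 75%; inconclusive = exactly half above 75%; inactive = most below 75%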;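 note: all wells also contain fluconazole at 8 µg/ml as a sub-toxic cotreatment; 0% = median of DMSO wells and 100% = median of geldanamycin control wells; wells of about 8 µL received 7.5 nL stock; the first replicate is given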
# HNF4A DNA FP – change in binding of human HNF4A to DNA, primary screen, biochemical, fluorescence polarization, FITC-DNA; Hepatocyte nuclear factor 4-alpha (Homo sapiens), P41235; 1 h; activity change, % at 10 µM; 360,000 tested, 0.3% active; in the data active = activity change above about 30%, passing the limit was not always enough;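 note: controls were the assay level and a saturating level of protein; the project sought stronger binding though the title names inhibitors; some compounds called inactive have numbers as strong as hits; positive values seem to mean higher polarization but the record does not say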
# Target sequence (P41235 whole entry, looked up): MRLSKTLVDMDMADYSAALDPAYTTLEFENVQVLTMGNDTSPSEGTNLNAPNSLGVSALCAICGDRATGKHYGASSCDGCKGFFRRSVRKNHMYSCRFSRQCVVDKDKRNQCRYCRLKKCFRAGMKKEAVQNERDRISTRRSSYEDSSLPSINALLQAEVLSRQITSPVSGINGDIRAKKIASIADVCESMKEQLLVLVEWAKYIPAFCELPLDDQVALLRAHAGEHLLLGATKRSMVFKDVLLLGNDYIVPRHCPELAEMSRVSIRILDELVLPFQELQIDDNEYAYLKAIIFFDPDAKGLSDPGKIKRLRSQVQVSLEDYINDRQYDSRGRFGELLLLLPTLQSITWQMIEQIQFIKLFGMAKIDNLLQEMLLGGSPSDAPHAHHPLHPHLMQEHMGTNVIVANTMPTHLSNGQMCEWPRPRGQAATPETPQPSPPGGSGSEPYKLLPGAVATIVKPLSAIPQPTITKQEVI
# ALR inh – inhibitors of human ALR sulfhydryl oxidase, primary screen, biochemical, H2O2 detection, HRP-luminol luminescence, single point | purified ALR, DTT oxidation | inhibition, % (test concentration not listed) | 290,000 tested, 3.8% active | AID 485317, 2010;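 active = mean and each replicate at 75% or more; inconclusive = only one of the two met; inactive = neither met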;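 note: stock transfer was 7.5 nL into about 7.5 µL; 0% = neutral wells and 100% = wells with inactivated enzyme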
# Target sequence (P55789 whole entry, looked up): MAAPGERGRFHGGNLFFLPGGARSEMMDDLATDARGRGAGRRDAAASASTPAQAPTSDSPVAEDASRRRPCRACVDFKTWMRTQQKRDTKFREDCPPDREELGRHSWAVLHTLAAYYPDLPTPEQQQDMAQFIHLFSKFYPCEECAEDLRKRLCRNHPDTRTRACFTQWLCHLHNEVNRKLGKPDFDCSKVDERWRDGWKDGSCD
# B2AR ag – beta2AR agonists driving receptor internalization, primary screen, cell-based, FAP fluorogen, flow cytometry | Am2.2-beta2AR cells; reference of the scale not given here | response, % (concentration not given with the values) | 340,000 tested, 0.43% active | AID 504454, 2011;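 active = response above a set limit, near 3 SD of response in nonfluorescent compounds, cut at about 42% in these data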;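 note: stock transfer was 100 nL into about 11 µL; a reference agonist was the positive control; negative values mostly stem from fluorescent compounds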
# Target sequence (P07550 whole entry, looked up): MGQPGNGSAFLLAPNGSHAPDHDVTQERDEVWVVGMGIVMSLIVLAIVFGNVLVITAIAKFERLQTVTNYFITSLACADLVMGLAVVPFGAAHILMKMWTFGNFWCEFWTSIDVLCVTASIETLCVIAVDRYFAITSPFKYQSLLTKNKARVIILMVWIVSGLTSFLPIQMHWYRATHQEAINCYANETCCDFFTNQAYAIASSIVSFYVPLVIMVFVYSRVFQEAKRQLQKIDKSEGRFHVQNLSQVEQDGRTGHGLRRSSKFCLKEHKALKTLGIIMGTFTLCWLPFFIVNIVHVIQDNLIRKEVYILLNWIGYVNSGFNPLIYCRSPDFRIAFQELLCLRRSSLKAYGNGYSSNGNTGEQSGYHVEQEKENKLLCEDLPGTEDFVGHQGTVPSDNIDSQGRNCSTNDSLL
# Vif TR-FRET – inhibitors of Vif binding to APOBEC3G peptide, primary screen, biochemical, TR-FRET, GST-Vif 1-94, biotin-A3G peptide, dose response retest (AID 1117319); TR-FRET GST-Vif / biotin-A3G peptide binding; higher % means a stronger effect; test concentration not given here; strong numbers were not always called active; one-dose inhibition, %; IC50 in µM for titrated hits; Virion infectivity factor (Human immunodeficiency virus type 1 group M subtype B (isolate …; 260,000 tested, 0.57% active;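 active = above the screen mean plus three standard deviations and confirmed in dose response; inconclusive = results disagree or hit not tested in dose response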;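 note: Vif residues 1-94 fused to GST binding biotinylated APOBEC3G peptide 110-148; 0% = full assay without inhibitor and 100% = GST in place of GST-Vif; retest series ran down from 100 µM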
# LANA-H2A inh – blockers of LANA interaction with H2A/H2B – biochemical, FP readout, HTS, primary screen. Protein LANA1 (Human herpesvirus 8 type P (isolate GK18)), Q9QR71. cell-free LANA-H2A/H2B peptide, fluorescence polarization. 320,000 tested, 0.6% active. inhibition, % (concentration not given with the values); in the data active = inhibition mostly above about 10%, no sharp cut-off; inactive = mostly below about 6.7%;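 note: stock transfer was 7.5 nL into about 10 µL; 0% = median of vehicle wells and 100% = median of positive control wells; one replicate is shown; the record names a cut of 25% in any replicate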
# * hit, by the source's call; i = inactive; ? = inconclusive; nt = not tested or not shown. Not a hit list (roughly 6.3% active in at least one column).
# Start of the listing, in advance:
SMILES,RanGTP-Impb inh,Calb FLC,HNF4A DNA FP,ALR inh,B2AR ag,Vif TR-FRET,LANA-H2A inh
Cc1ccc(-c2nn(-c3ccccc3)cc2C(=O)Nc2cccc(S(=O)(=O)N3CCOCC3)c2)cc1,3.4,0,-3.4,-1,-24,nt,-4.1
Cn1c(SCC(=O)NNC(=O)c2ccc(Br)cc2)nnc1-c1cccnc1,-3.6,-4,2.3,42,-1,-8%,0.8
Cc1ccc(NC(=S)c2ccncc2)c(C)c1,25,0,1.3,7,6,nt,0.1
CCc1ccc(Nc2oc(C)cc(=O)c2C(C)=O)cc1,3.4,-1,-3.6,-4,-1,21%,0.4
CCOc1ccc2nc(SC(C)C(N)=O)[nH]c2c1 (configuration not stated),-2.5,-10,-0.1,nt,-3,20%,-3.7
COCCCNC(=O)Cn1cnc2sc(C)c(S(=O)(=O)N3CCN(c4ccccc4OC)CC3)c2c1=O,-0.7,0,-0.6,-7,-1,4%,-1.6
O=C(COc1ccccc1)NC1=NCCS1,-5.2,-2,2.2,2,0,1%,-3.4
COc1ccccc1N(CC(N)=O)S(=O)(=O)c1ccc(C)cc1,-1.2,-7,4.2,-16,-4,0%,-2.6
COc1ccc(/C=C/CN2CCCC(CCC(=O)NCc3ccc(F)c(F)c3)C2)cc1 (configuration not stated),-2.9,-7,-7.0,-2,15,8%,3.4
Cc1cc(C)c2c(C)nn(-c3ccccc3)c2n1,-2.4,-4,2.6,1,5,-3%,-0.6
C=CCn1c(SCC(=O)Nc2ccc(C(=O)OC(C)C)cc2)nnc1-c1cccs1,-3.9,11,0.6,-5,-2,-10%,1.3
CCN(CC)S(=O)(=O)c1ccc(OC)c(NC(=O)C(Cc2ccccc2)N2C(=O)c3ccccc3C2=O)c1 (configuration not stated),-1.4,0,nt,-46,nt,nt,1.9
CCCCn1cnc2c(SCc3cccc(F)c3)nc(N)nc21,nt,nt,3.9,nt,-6,-5%,nt

# Main list (from the top)
SMILES,RanGTP-Impb inh,Calb FLC,HNF4A DNA FP,ALR inh,B2AR ag,Vif TR-FRET,LANA-H2A inh
Cc1ccc(-c2nn(-c3ccccc3)cc2C(=O)Nc2cccc(S(=O)(=O)N3CCOCC3)c2)cc1,3.4,0,-3.4,-1,-24,nt,-4.1
Cn1c(SCC(=O)NNC(=O)c2ccc(Br)cc2)nnc1-c1cccnc1,-3.6,-4,2.3,42,-1,-8%,0.8
Cc1ccc(NC(=S)c2ccncc2)c(C)c1,25,0,1.3,7,6,nt,0.1
CCc1ccc(Nc2oc(C)cc(=O)c2C(C)=O)cc1,3.4,-1,-3.6,-4,-1,21%,0.4
CCOc1ccc2nc(SC(C)C(N)=O)[nH]c2c1 (configuration not stated),-2.5,-10,-0.1,nt,-3,20%,-3.7
COCCCNC(=O)Cn1cnc2sc(C)c(S(=O)(=O)N3CCN(c4ccccc4OC)CC3)c2c1=O,-0.7,0,-0.6,-7,-1,4%,-1.6
O=C(COc1ccccc1)NC1=NCCS1,-5.2,-2,2.2,2,0,1%,-3.4
COc1ccccc1N(CC(N)=O)S(=O)(=O)c1ccc(C)cc1,-1.2,-7,4.2,-16,-4,0%,-2.6
COc1ccc(/C=C/CN2CCCC(CCC(=O)NCc3ccc(F)c(F)c3)C2)cc1 (configuration not stated),-2.9,-7,-7.0,-2,15,8%,3.4
Cc1cc(C)c2c(C)nn(-c3ccccc3)c2n1,-2.4,-4,2.6,1,5,-3%,-0.6
C=CCn1c(SCC(=O)Nc2ccc(C(=O)OC(C)C)cc2)nnc1-c1cccs1,-3.9,11,0.6,-5,-2,-10%,1.3
CCN(CC)S(=O)(=O)c1ccc(OC)c(NC(=O)C(Cc2ccccc2)N2C(=O)c3ccccc3C2=O)c1 (configuration not stated),-1.4,0,nt,-46,nt,nt,1.9
CCCCn1cnc2c(SCc3cccc(F)c3)nc(N)nc21,nt,nt,3.9,nt,-6,-5%,nt
CCN(CC)c1ccc(C2Nc3cccc4cccc(c34)N2)c(O)c1,nt,nt,10,15,21,6%,1.2
CC(=O)Nc1nc(-c2ccccc2)nc(-c2ccccc2OC(C)=O)n1,5.7,-2,1.7,8,7,4%,3.7
COc1ccccc1N1CCN(C2CC(=O)N(c3ccc(F)cc3)C2=O)CC1 (configuration not stated),-0.5,24,0.8,14,-9,nt,0.5
COc1ccc(NC(=O)c2cc(-c3ccccc3)nc3c2cnn3C(C)C)cc1,nt,nt,0.9,nt,16,nt,-1.4
COC(=O)c1c(O)c2ccccc2[nH]c1=O,1.0,-24,0.2,-3,2,22%,-2.4
CCNC(=O)N(CC)C[C@H]1N[C@@](Cc2ccccc2)(C(=O)OC)[C@H]2C(=O)N(C)C(=O)[C@@H]12,nt,nt,-2.6,nt,-1,-9%,0.8
O=C(COC(=O)C1CC2C=CC1C2)NCc1ccccc1Cl (configuration not stated),1.0,-2,0.4,35,-3,nt,-0.1
CN(C(=O)c1cccc(NC(=O)Cc2ccc(NC(=O)C3CCN(C(=O)CCc4ccccc4)CC3)cc2)c1)C1CC1,nt,nt,0.1,nt,7,-1%,nt
CCn1c(Cc2cccc3ccccc23)nnc1SCC(=O)Nc1nccs1,2.1,-5,4.1,-7,-1,3%,-5.0
Cc1cc(C)nc(SC2CCCCC2NS(=O)(=O)c2ccccc2)n1 (configuration not stated),0.0,-1,2.0,-8,-15,nt,-2.3
Cc1cccc(C)c1N(CC(=O)N1CCOCC1)S(C)(=O)=O,-0.2,-1,4.5,nt,0,nt,-3.5
C[C@@]12CCC[C@H](O1)[C@@H]([C@H](O)c1ccccc1)O2,nt,nt,-1.7,5,-7,nt,1.8
COc1ccc(CC(=O)N/N=C(\C)CC(=O)Nc2cccc(F)c2)cc1,-0.7,1,-0.3,nt,0,3%,14
Cc1cc(C)c(C)c(S(=O)(=O)Nc2ccc(OCC(=O)O)cc2)c1C,?,21,-0.2,2,4,17%,0.4
Cc1onc(-c2ccccc2Cl)c1C(=O)N1CCOC12CCCCC2,0.2,8,1.1,-3,5,8%,i
COc1ccc([C@H]2CC(=O)C=C(c3cccc(Cl)c3)C2)cc1OC,nt,nt,-2.2,-3,-7,nt,2.7
Cc1cc(C)n2nc(C(=O)OC(C)C(=O)c3cc(C)c(C)cc3C)nc2n1 (configuration not stated),11,6,-0.8,nt,15,0%,-0.5
O=C(CSc1ccc2c(c1)OCCO2)N1CCN(c2ccccc2)CC1,nt,nt,-2.5,58,18,5%,7.9
CCNC(=O)c1cccc(S(=O)(=O)N2CCCCCC2)c1,1.7,-15,1.7,nt,1,nt,4.5
O=C(NCCc1ccc(F)cc1)C(=O)NCC1CCCN1S(=O)(=O)c1cccs1 (configuration not stated),3.1,10,1.0,-14,-2,8%,-6.2
CC(C)CC(c1nnnn1Cc1ccco1)N1CCN(C2CCCC2)CC1 (configuration not stated),1.0,0,-0.3,2,14,-2%,-1.9
CSc1nsc(SC)c1C(=O)Nc1ccc(C(C)(C)C)cc1,2.1,9,1.8,-7,-3,-9%,-1.3
NC(=O)c1c(NC(=O)C2CCCO2)sc2c1CCCC2 (configuration not stated),1.6,9,1.1,nt,-11,nt,-1.9
Cc1ccc(NC(=O)CN2C(=O)NC3(CCCc4ccccc43)C2=O)c(Cl)c1 (configuration not stated),nt,nt,2.4,-2,-1,-6%,-0.1
COc1ccccc1NC(=O)COC(=O)c1ccc(S(=O)(=O)NCc2ccco2)cc1,-1.8,-11,-0.5,-1,10,10%,0.9
CC(C)CCSc1nc(N2CCOCC2)c2c(c1C#N)CC(C)(C)OC2,-0.1,6,1.6,-7,4,-9%,-6.1
Cc1ccc(-c2nc3ncccn3c2Nc2ccc3c(c2)OCCO3)cc1,-1.1,-5,1.2,96*,-8,17%,2.0
CN(Cc1ccc(-n2cccn2)cc1)Cc1cn(C)nc1-c1ccccc1F,-3.9,-8,2.5,nt,-8,-3%,5.5
O=C(NCCC1=CCCCC1)c1ccc(Cl)cc1,-2.7,-8,nt,-7,nt,6%,-0.2
Cc1cc(C)cc(N(C(C)C(=O)N2CCCCC2)S(C)(=O)=O)c1 (configuration not stated),2.1,1,-0.6,-3,5,31%,-7.8
O=C(Nc1cc(Br)ccc1O)c1cnn2c(C(F)F)cc(C3CC3)nc12,-0.1,16,-0.4,-4,2,-5%,-8.3
O=C(c1cnn(C(=O)c2ccc(O)cc2)c1)c1ccccc1O,-1.0,2,nt,nt,nt,3%,-1.9
C/C=C/C(=O)Nc1ccccc1Br,-1.3,-3,0.6,-5,-5,0%,2.7
O=C(CN1c2cccc3cccc(c23)S1(=O)=O)NCCc1ccc(F)cc1,nt,nt,0.1,-10,-10,nt,0.1
COc1cccc(NC(=O)CN(C)C(=O)CC2CC3CCC2C3)c1 (configuration not stated),-0.9,-3,1.2,-8,2,-8%,1.2
Cc1cc(C(=O)Cn2nc(C(=O)O)c3ccccc3c2=O)c(C)n1CC(F)(F)F,?,-1,0.7,-5,2,-2%,-5.1
O=C(Nc1ccc(N2CCOCC2)cc1)C1CCCN(S(=O)(=O)c2ccccc2)C1 (configuration not stated),5.5,-3,1.9,-11,0,7%,-0.7
O=c1[nH]c(Cc2cccc(C(F)(F)F)c2)nc2ccccc12,1.3,4,0.0,nt,-2,nt,2.1
O=C(O)c1ccc(Nc2c3ccccc3nc3ccccc23)cc1,20*,-4,-1.9,-14,6,5%,-5.2
Cc1cc(Br)ccc1NC(=O)CNC(=O)COc1ccccc1C,8.0,-1,-1.2,0,7,-2%,-3.9
CC1CCCN(S(=O)(=O)c2ccc(S(=O)(=O)NC(C)c3cccs3)cc2)C1 (configuration not stated),nt,nt,-0.5,-5,-4,0%,-3.6
CCC(C)c1ccc(NC(=O)COC(=O)C2CCCC2)cc1 (configuration not stated),nt,nt,3.1,1,-1,-9%,-4.8
COc1ccc(-n2cnnc2SCC(=O)NC2CCS(=O)(=O)C2)cc1 (configuration not stated),5.8,-3,0.1,1,6,?,-0.1
COc1cc(C(=O)NCC(=O)NCC2COc3ccccc3O2)cc(OC)c1OC (configuration not stated),-1.3,0,2.9,6,0,-3%,2.5
CC(OC(=O)C(C)N1C(=O)C2C3C=CC(C4CC34)C2C1=O)C(=O)c1ccccc1 (configuration not stated),-2.5,-9,2.8,-16,2,-7%,-4.0
CC(=O)NNc1nc(-c2ccccc2)c2cc(Br)ccc2n1,3.5,-15,0.4,0,-4,?,-1.5
CCCC1(CCC)NC(=O)N(CC(=O)N2CCN(C(=O)c3ccco3)CC2)C1=O,-2.7,3,1.2,3,-5,1%,-0.2

# The list continues.
SMILES,RanGTP-Impb inh,Calb FLC,HNF4A DNA FP,ALR inh,B2AR ag,Vif TR-FRET,LANA-H2A inh
Cc1ccccc1C1c2[nH]c3ccccc3c2CCN1C(=O)c1ccc(=O)n(C)n1 (configuration not stated),2.3,53,0.4,2,5,9%,-1.7
Cc1ccccc1C(=O)NCC(=O)OC1CCCCC1=O (configuration not stated),-1.7,-3,-1.2,-8,9,2%,5.0
Cc1nc2ccc(-c3nc4cc(N)ccc4o3)cc2[nH]1,6.8,6,-2.4,98*,43*,21%,1.7
C=CCNC(=O)NC(=O)CSc1nnc(C(F)(F)F)n1C,3.0,3,-0.3,0,3,2%,0.6
